Assay outcomes deposited in PubChem BioAssay by several laboratories.
RanGTP-Impb inh = inhibitors of RanGTP-importin-beta interaction, primary screen, biochemical, FRET, CFP-Ran, YFP-importin-beta, homogeneous | cell-free CFP-Ran/YFP-importin-beta FRET ratio | inhibition, % (no concentration beside the values) | hit rate 1.1% among 300,000 | AID 2216;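 active = most replicates above 15%; inconclusive = exactly half above 15%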;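 note: 0% = DMSO wells and 100% = Ran loaded with GDP instead of GTP; wells of about 40 µL received 100 nL stock; the first replicate is given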
E coli growth = blocks Escherichia coli growth; OD600, 23 h; active compounds read low; OD600 absorbance (concentration not given with the values); hit rate 0.21% among 330,000;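 active = OD600 absorbance below the run mean of sample wells minus 3.6 SD, in any replicate, cut at about 0.56 in these data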;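 note: stock transfer was 300 nL into about 60 µL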
UCH37 DUB inh = blocks the human deubiquitinase UCH37 | Q9Y5K5 | purified proteasome/UCH37, Ub-AMC cleavage fluorescence | inhibition, % (test concentration not listed) | hit rate 0.33% among 330,000;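 active = mean of two replicates above 20%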;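 note: 0% = compound-free wells with enzyme and 100% = wells lacking proteasome; stock transfer was 100 nL into about 20 µL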
Target sequence (Q9Y5K5 whole entry, looked up): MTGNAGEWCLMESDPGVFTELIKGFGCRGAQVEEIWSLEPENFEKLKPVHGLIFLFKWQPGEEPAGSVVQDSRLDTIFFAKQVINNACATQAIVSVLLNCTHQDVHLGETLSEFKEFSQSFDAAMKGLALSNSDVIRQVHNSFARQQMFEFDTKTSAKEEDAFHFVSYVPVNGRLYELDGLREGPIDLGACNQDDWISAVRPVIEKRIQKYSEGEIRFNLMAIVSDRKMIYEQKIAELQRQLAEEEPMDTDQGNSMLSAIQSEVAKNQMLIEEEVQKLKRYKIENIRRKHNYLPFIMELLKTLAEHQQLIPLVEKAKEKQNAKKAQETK
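Material: human UCH37 enzyme supplied as purified proteasome complex / Amount: 0.15 nM proteasome as dispensed / Buffer or medium: pH 7.4 Tris-HCl (50 mM) with ovalbumin, ATP-MgCl2, DTT / Times: preincubation 30 min, reaction 25 min, room temperature / Technique: AMC fluorescence from Ub-AMC cleavage, excitation 355 nm, emission 460 nm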
MLL AF4-AF9 inh = inhibitors of human MLL-AF4/AF9 interaction; P42568; AlphaScreen, biotin-AF4 peptide binding to FLAG-AF9; inhibition, % at 10 µM; hit rate 0.47% among 350,000; AID 651704;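 active = every replicate reaching a set inhibition limit, whatever the replicate mean, cut at about 25% in these data; inconclusive = mean inhibition reaches that limit but some replicates miss it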;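 note: 0% = plate neutral control median and 100% = total signal loss; the record names both 10 and 1 µM as test concentration; the first replicate is given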
HNF4A DNA FP = change in binding of human HNF4 alpha to DNA. P41235. HNF4a-FITC DNA binding, fluorescence polarization, 1 h. activity change, % at 10 µM. hit rate 0.3% among 360,000. AID 1224865; in the data active = activity change above about 30%, passing the limit was not always enough;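 note: controls were the assay level and a saturating level of protein; the project sought stronger binding though the title names inhibitors; some compounds called inactive have numbers as strong as hits; positive values seem to mean higher polarization but the record does not say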
Target sequence (P41235 whole entry, looked up): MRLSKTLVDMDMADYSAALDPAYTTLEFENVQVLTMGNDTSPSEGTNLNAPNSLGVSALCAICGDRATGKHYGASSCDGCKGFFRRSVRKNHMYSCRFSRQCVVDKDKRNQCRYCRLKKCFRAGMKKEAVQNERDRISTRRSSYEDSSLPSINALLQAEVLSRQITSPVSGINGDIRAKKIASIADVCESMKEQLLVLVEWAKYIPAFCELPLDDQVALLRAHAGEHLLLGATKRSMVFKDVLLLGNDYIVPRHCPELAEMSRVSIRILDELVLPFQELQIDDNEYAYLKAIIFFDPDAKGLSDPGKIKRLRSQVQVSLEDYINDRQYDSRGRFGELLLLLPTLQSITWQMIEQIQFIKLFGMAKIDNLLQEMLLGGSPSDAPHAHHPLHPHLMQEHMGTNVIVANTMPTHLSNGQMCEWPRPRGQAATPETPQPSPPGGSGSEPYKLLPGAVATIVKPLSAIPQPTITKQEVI
Vif A3G = inhibitors of Vif binding to APOBEC3G peptide, primary screen, biochemical, TR-FRET, GST-Vif 1-94, biotin-A3G peptide, dose response retest (AID 1117319); TR-FRET GST-Vif / biotin-A3G peptide binding; higher % means a stronger effect; test concentration not given here; strong numbers were not always called active; inhibition, %, or IC50 in µM where a hit was titrated; hit rate 0.57% among 260,000;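 active = above the screen mean plus three standard deviations and confirmed in dose response; inconclusive = results disagree or hit not tested in dose response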;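 note: Vif residues 1-94 fused to GST binding biotinylated APOBEC3G peptide 110-148; 0% = full assay without inhibitor and 100% = GST in place of GST-Vif; retest series ran down from 100 µM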
FGF22 binding = binders of recombinant human FGF22 by thermal shift | calls only at 9.99 µM | hit rate 1.5% among 340,000 | SYPRO orange fluorescence; percent of sucrose octasulfate shift, DMSO zero | AID 651658 | Q9HCT0;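 active = melting point raised past a set limit in the mean and every replicate; inconclusive = no clear call; three in four hits are not shown here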
Target sequence (Q9HCT0 whole entry, looked up): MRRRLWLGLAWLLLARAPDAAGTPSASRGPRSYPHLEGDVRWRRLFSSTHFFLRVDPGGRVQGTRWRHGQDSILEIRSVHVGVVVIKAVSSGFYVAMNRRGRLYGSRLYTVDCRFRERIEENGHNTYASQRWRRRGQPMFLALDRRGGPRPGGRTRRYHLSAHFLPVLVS
An asterisk follows results filed as active; i = inactive; ? = inconclusive; . = not tested or not shown. These rows are one share of the data (hit frequency here may not be typical).

Screens in order – RanGTP-Impb inh	E coli growth	UCH37 DUB inh	MLL AF4-AF9 inh	HNF4A DNA FP	Vif A3G	FGF22 binding
- Cc1ccccc1-n1c(-c2ccco2)nc2ccccc2c1=O
    3.9	0.7	4.5	.	-2.3	-2%	.
- COC(=O)c1c2[n+](cc3cc(OC)c(OC)cc13)CCc1cc(OC)c(OC)cc1-2
    -3.5	0.67	14	.	0.2	.	i
- CN(C)C1(CNC(=O)Nc2ccc(Cl)c(Cl)c2)CCCCC1
    -2.4	0.65	17	2.0	1.9	.	i
- CC(=O)c1ccc(OCC(=O)N2CCCC(N(C)Cc3ccccc3)C2)cc1 (stereo unspecified)
    1.3	0.69	2.4	-3.0	-2.3	0%	i
- Cc1nn(Cc2ccccc2Cl)c(Cl)c1C(=O)OCC(=O)NC(=O)NC1CCCCC1
    -2.3	0.71	-0.1	-0.9	0.1	-7%	i
- O=P(Nc1ccccc1Cl)(c1ccccc1)c1nc2c(s1)CCCC2 (stereo unspecified)
    ?	0.69	0.8	.	0.1	-2%	.
- Cc1ccnc(NC(=O)CCCc2ccc(N(CCCl)CCCl)cc2)n1
    .	0.68	1.6	26*	8.7	-3%	i
- Cc1[nH]c2ccccc2c1C(=O)C(=O)N1CCC2(CC1)OCCO2
    1.7	0.72	1.6	0.9	-1.1	1%	i
- O=c1[nH]c2ccccc2n1C1CCN(C(c2ccnc3ccccc23)c2nnnn2-c2ccc3c(c2)OCCO3)CC1 (stereo unspecified)
    .	.	.	-0.6	-2.7	.	i
- CCN(CC)CCCC(C)N=C(c1ccccc1)c1c(O)n(C)c(=O)n(C)c1=O (stereo unspecified)
    -0.3	0.76	1.5	.	-0.7	-1%	.
- COC(=NC1CCCC1)C(O)c1c[nH]c2ccccc12 (stereo unspecified)
    -1.6	0.73	0.3	.	-0.1	5%	.
- COC(=O)C1CN(C#N)N(c2ccc(Cl)cc2)C12c1ccccc1-c1ccccc12 (stereo unspecified)
    -2.3	0.71	8.8	.	-2.2	-2%	.
- CN1C(=O)C(O)N=C(c2ccccc2)c2ccccc21 (stereo unspecified)
    1.4	0.65	1.2	4.8	3.6	.	i
- COC(=O)C1=C(c2ccc(C(C)=O)cc2)C[C@@H]2CC[C@H]1N2C(=O)NC1CCCCC1
    .	.	0.1	-1.0	-3.7	.	i
- COc1ccn(C)c(=O)c1C#N
    10	0.71	1.1	-1.5	-0.3	3%	i
- COc1ccc(CC2C(=O)N(c3ccccc3)C(=O)N(c3ccccc3)C2=O)c(OC)c1
    -3.1	0.71	4.2	.	5.6	5%	.
- CC(C)C[C@H]1COc2cc(N3CCN(C)CC3)ccc2S(=O)(=O)N1
    .	.	.	-1.9	3.0	.	i
- S=P1(Oc2ccccc2)Nc2ccccc2N1
    .	0.67	5.6	1.6	0.3	-5%	.
- CC(=O)c1cc(C#N)c(N2CCN(C)CC2)nc1C
    ?	0.69	2.5	-2.2	4.1	-2%	i
- COc1ccc(OC)c(N2C(=O)/C(=C/c3ccco3)C(=O)NC2=S)c1
    3.1	0.71	52*	.	.	.	.
- CN1C(=O)C(=Cc2cn(CC#N)c3ccccc23)C(=O)N(C)C1=O
    -1.4	0.71	1.5	-4.6	3.4	-1%	i
- O=C(c1ccc2c(c1)OCO2)C1CCCN(Cc2c(F)cccc2Cl)C1 (stereo unspecified)
    1.7	0.7	1.7	0.7	-0.5	9%	i
- CCOC(=O)c1cc(C)sc1/N=C/C1C(=O)NC(=S)NC1=O
    .	.	.	-5.2	3.1	-19%	i
- CCN1C(=O)NC(=O)/C(=C\c2ccc(N3CCOCC3)cc2OC)C1=O
    -1.0	0.7	4.1	.	.	1%	.
- CCc1nnc(NS(=O)(=O)c2ccc(N=Cc3c(O)n(-c4ccc(Cl)cc4)c(=O)[nH]c3=O)cc2)s1
    -1.4	0.61	0.8	-2.9	4.0	-4%	.
- O=C(N/N=C/c1c(O)n(Cc2ccc(F)cc2)c(=O)[nH]c1=O)c1ccccc1O
    -3.1	0.7	-33	-0.8	4.9	?	.
- O=C1NC(=O)N(c2ccc(Br)cc2)C(=O)/C1=C/c1ccsc1
    -4.8	0.65	2.1	.	5.5	18%	.
- O=C(Nc1c(F)cc(F)cc1F)c1cccn(Cc2ccccc2)c1=O
    3.2	0.7	1.3	-3.0	-4.4	7%	.
- CCc1nc2ccccc2c(=O)n1-c1ccccc1OC
    3.2	0.7	1.4	3.2	-1.8	4%	i
- CCCCn1c(O)c(C(C)=NC(Cc2c[nH]c3ccccc23)C(=O)OC)c(=O)[nH]c1=O (stereo unspecified)
    3.0	0.75	2.6	.	0.5	0%	.
- Cc1ccc(C2CC3CCC(C2)N3Cc2ccccc2F)cc1 (stereo unspecified)
    -6.7	0.61	3.3	-1.5	5.7	-9%	i
- COc1ccccc1-n1c(-c2ccc(C)cc2)nc2ccccc2c1=O
    2.7	0.65	-0.8	1.4	-1.4	0%	i
- COC(=O)CN(CCCl)P1(=O)OCCCN1CCCl (stereo unspecified)
    .	.	.	-6.7	-5.5	.	i
- CCOC(=O)[C@]12Cc3ccccc3[C@H]1N(CCC(=O)OC)C(=O)c1ccccc12
    .	.	.	-2.7	-1.6	.	i
- O=[N+]([O-])c1ccc(NC2CCCC2)c2ccncc12
    -0.2	0.67	9.0	.	2.6	.	.
- O=C1CN=C(c2ccc(F)cc2)c2oc3ccccc3c2N1
    -2.9	0.69	2.8	-3.5	-1.7	18%	i
- CCCCn1c(O)c(/C=N/NC(=O)c2ccncc2)c(=O)[nH]c1=S
    4.9	0.69	-40	2.8	48*	-7%	i
- COC(=O)C1=C(c2cc3ccccc3o2)C[C@@H]2CC[C@H]1N2C(=O)NCc1ccc(F)cc1
    -1.1	.	0.3	-26	-2.6	.	i
- COC(=O)CSC1=NP(=S)(SCC(=O)OC)N2CCCC2=C1C#N (stereo unspecified)
    ?	0.69	4.7	.	0.4	0%	.
- Cn1c(O)c(C(=NCCc2c[nH]c3ccccc23)c2ccccc2)c(=O)n(C)c1=O
    1.3	0.64	2.8	0.1	4.0	-11%	i
- CN1CCc2cc3c(cc2[C@H]1[C@@H]1OC(=O)c2c1ccc1c2OCO1)OCO3
    .	.	4.9	-1.9	0.9	.	i
- COc1ccc(CCNCc2cc(OC)cc(OC)c2)cc1
    .	.	.	1.5	1.3	-6%	i
- CCn1c(O)c(C(=O)CC2NCCc3ccccc32)c(=O)n(CC)c1=S (stereo unspecified)
    .	0.7	-1.2	-1.8	36	-1%	.
- CC[N+](C)(CC)CCCCOc1ccc2c(c1)C(=O)c1cc(OCCCC[N+](C)(CC)CC)ccc1-2
    0.4	0.57	5.3	1.2	4.2	?	i
- CN1CCCC2c3ccccc3CCC21 (stereo unspecified)
    .	.	.	0.0	-1.2	0%	i
- CC(=O)OC1CCC2(/C=N/O)C(=CCC3C4CCC(=O)C4(C)CCC32)C1 (stereo unspecified)
    0.9	.	.	-0.8	-4.0	0%	i
- COC(=O)C1=C(c2cc3ccccc3s2)C[C@@H]2CC[C@H]1N2C(=O)N1CCC(O)CC1
    2.6	.	4.8	0.6	-0.8	.	i
- C[C@@H]1C(=O)O[C@@H]2[C@H](O)C34[C@@H]5OC(=O)C3(O[C@H]3OC(=O)[C@H](O)C34[C@H](C(C)(C)C)[C@H]5O)[C@@]12O (stereo partly specified)
    -5.0	.	1.6	3.3	5.6	.	i
- O=C1NC(=O)C(Sc2ccccc2[N+](=O)[O-])C(=O)N1
    -0.5	0.68	14	1.4	1.6	.	i
- OCC(Cl)CCl (stereo unspecified)
    .	0.67	2.5	.	1.1	.	i
- O=C1CC(N2CCC(n3c(=O)[nH]c4ccccc43)CC2)C(=O)N1Cc1ccccc1 (stereo unspecified)
    0.2	0.73	2.4	.	0.3	25%	.
- CCOC(=O)CNC(=O)CNC(=O)C(Cc1ccc(N(CCCl)CCCl)cc1)NC(C)=O (stereo unspecified)
    -1.7	0.67	4.4	-2.6	-2.0	3%	i
- CCC1CN2CCc3cc(OC)c(OC)cc3C2CC1CC1NCCc2c1[nH]c1ccc(O)cc21 (stereo unspecified)
    .	.	.	?	3.4	1%	i
- CCC(C)(C)n1nnnc1C(c1cccs1)N1CC=C(c2ccc(F)cc2)CC1 (stereo unspecified)
    2.0	0.65	2.0	.	5.2	3%	.
- Cc1cc2c(cc1C)NP(=S)(c1ccccc1)N2
    .	0.67	0.1	12	-0.8	-5%	.
- COC(=O)CC1=C(C(=O)OC)C2(C(=O)N(C)c3ccccc32)C(C#N)=C(N)O1 (stereo unspecified)
    -4.7	0.73	3.6	.	0.9	-6%	.
- C=CCN1C(=O)C2(C(C(=O)OCC)=C(N)Oc3ccccc32)c2c1c1ccccc1oc2=O (stereo unspecified)
    3.8	0.7	3.7	.	-3.6	?	.
- Fc1ccc(CCNCc2cccc(Cl)c2)cc1
    -3.9	0.66	3.4	.	3.8	0%	.
- O=C(O)c1[nH]c(=O)[nH]c(=O)c1F
    5.0	0.69	4.3	-12	0.8	4%	i
- CCOCCc1c(O)[nH]c(=S)[nH]c1=O
    0.4	0.72	0.8	-11	-0.4	-6%	.

(further entries)
Screens in order – RanGTP-Impb inh	E coli growth	UCH37 DUB inh	MLL AF4-AF9 inh	HNF4A DNA FP	Vif A3G	FGF22 binding
- CCC(=NCc1cccnc1)c1c(O)n(-c2ccc(C)cc2)c(=O)[nH]c1=O
    0.8	0.64	4.3	-6.1	-2.2	1%	i
- COc1ccc(N2C(=O)/C(=C/c3cc(C)n(-c4ccc(C)cn4)c3C)C(=O)NC2=S)c(OC)c1
    ?	0.67	4.4	-2.1	-2.7	32%	i
- C=C1[C@@H](OC(C)=O)[C@]23C[C@@H]1[C@@H](OC(C)=O)CC2[C@]12C4C[C@H]3[C@H]1N(CC)C[C@]4(C)CC[C@@H]2O (stereo partly specified)
    2.4	0.71	4.7	0.3	0.1	.	i
- C=CCN1C(=O)NC(=O)/C(=C/c2cccn2C)C1=O
    3.7	.	1.7	.	0.1	?	.
- CCC(c1nnnn1-c1ccc2c(c1)OCCO2)N1CCC2(CC1)C(=O)NCN2c1ccccc1 (stereo unspecified)
    .	.	.	5.5	-4.1	.	i
- Cn1c(O)c(/C=C/C=Nc2ccccc2)c(=O)n(C)c1=S
    0.4	0.7	9.1	.	95*	11%	.
- O=P(C(c1c[nH]c2ccccc12)N1CCOCC1)(N1CCOCC1)N1CCOCC1 (stereo unspecified)
    8.9	0.76	4.6	.	-2.1	33%	.
- O=C1Nc2ccccc2Sc2ccccc21
    5.7	0.67	0.4	-0.7	2.3	-134%	i
- Cc1ccc(C(=O)N/C(=C\c2ccc(C(C)C)cc2)C(=O)NCCCN2CCOCC2)cc1
    3.9	0.67	3.0	.	2.8	.	.
- CCCN1CCO[C@@H]2c3cc(O)ccc3OC[C@H]21
    .	.	3.1	0.0	0.1	.	i
- COc1ccccc1-n1c(-c2ccccc2Cl)nc2ccccc2c1=O
    1.1	0.69	1.4	4.2	1.8	-3%	i
- O=C1C2CCCC1C(N1CCCC1)CC2 (stereo unspecified)
    ?	0.7	4.8	-3.1	-0.9	.	i
- CN(C)C(Cc1ccccc1)C(=O)c1ccccc1 (stereo unspecified)
    -2.0	0.66	-1.8	-1.0	2.6	-4%	i

Two records picked at random from the list so far, as already listed:
Screens in order – RanGTP-Impb inh	E coli growth	UCH37 DUB inh	MLL AF4-AF9 inh	HNF4A DNA FP	Vif A3G	FGF22 binding
- COC(=O)CSC1=NP(=S)(SCC(=O)OC)N2CCCC2=C1C#N (stereo unspecified)
    ?	0.69	4.7	.	0.4	0%	.
- C=C1[C@@H](OC(C)=O)[C@]23C[C@@H]1[C@@H](OC(C)=O)CC2[C@]12C4C[C@H]3[C@H]1N(CC)C[C@]4(C)CC[C@@H]2O (stereo partly specified)
    2.4	0.71	4.7	0.3	0.1	.	i
